Screening data as filed in PubChem BioAssay.
HNF4A DNA FP – change in binding of human HNF4A to DNA, primary screen, biochemical, fluorescence polarization, FITC-DNA | 1 h | activity change, % at 10 µM | 360,000 tested, 0.3% active; in the data active = activity change above about 30%, passing the limit was not always enough;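 note: controls were the assay level and a saturating level of protein; the project sought stronger binding though the title names inhibitors; some compounds called inactive have numbers as strong as hits; positive values seem to mean higher polarization but the record does not say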
Target sequence (P41235 whole entry, looked up): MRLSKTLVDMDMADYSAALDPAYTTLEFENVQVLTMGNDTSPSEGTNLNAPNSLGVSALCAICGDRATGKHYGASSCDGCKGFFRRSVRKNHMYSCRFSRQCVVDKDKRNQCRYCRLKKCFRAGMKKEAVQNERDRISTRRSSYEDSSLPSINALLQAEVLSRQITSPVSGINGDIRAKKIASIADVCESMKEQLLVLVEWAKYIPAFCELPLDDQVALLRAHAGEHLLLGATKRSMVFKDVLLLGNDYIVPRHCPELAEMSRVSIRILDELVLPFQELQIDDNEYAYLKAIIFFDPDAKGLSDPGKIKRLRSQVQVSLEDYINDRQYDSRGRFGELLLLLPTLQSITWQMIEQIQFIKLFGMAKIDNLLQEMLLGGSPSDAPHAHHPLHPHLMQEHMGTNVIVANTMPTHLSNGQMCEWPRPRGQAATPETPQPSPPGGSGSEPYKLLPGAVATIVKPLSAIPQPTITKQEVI
E coli growth – E. coli growth inhibition, primary screen, OD600; Escherichia coli growth, 23 h; active compounds read low; AID 1053175, 2014; 330,000 tested, 0.21% active; OD600 absorbance (no concentration beside the values);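 active = OD600 absorbance below the run mean of sample wells minus 3.6 SD, in any replicate, cut at about 0.56 in these data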;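 note: stock transfer was 300 nL into about 60 µL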
ALR H2O2 inh – inhibitors of human ALR sulfhydryl oxidase, primary screen, biochemical, H2O2 detection, HRP-luminol luminescence, single point; inhibition, % (test concentration not listed); FAD-linked sulfhydryl oxidase ALR (Homo sapiens), P55789; 290,000 tested, 3.8% active; purified ALR, DTT oxidation; AID 485317, 2010;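 active = mean and each replicate at 75% or more; inconclusive = only one of the two met; inactive = neither met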;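 note: stock transfer was 7.5 nL into about 7.5 µL; 0% = neutral wells and 100% = wells with inactivated enzyme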
Target sequence (P55789 whole entry, looked up): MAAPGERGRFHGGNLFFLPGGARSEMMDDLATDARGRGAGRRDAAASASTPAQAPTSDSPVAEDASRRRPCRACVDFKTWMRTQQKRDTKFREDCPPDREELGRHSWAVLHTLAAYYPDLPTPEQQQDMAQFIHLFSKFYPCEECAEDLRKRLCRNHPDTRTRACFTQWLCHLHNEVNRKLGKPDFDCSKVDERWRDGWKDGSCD
B2AR ag – beta2AR agonists driving receptor internalization, primary screen, cell-based, FAP fluorogen, flow cytometry; Beta-2 adrenergic receptor (Homo sapiens), P07550; Am2.2-beta2AR cells; reference of the scale not given here; response, % (concentration not given with the values); 340,000 tested, 0.43% active;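 active = response above a set limit, near 3 SD of response in nonfluorescent compounds, cut at about 42% in these data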;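 note: stock transfer was 100 nL into about 11 µL; a reference agonist was the positive control; negative values mostly stem from fluorescent compounds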
FGF22 binding – binders of human FGF22 protein, primary screen, FGF22 synaptogenesis inhibitor project, biophysical, thermal shift, single point; Fibroblast growth factor 22 (Homo sapiens), Q9HCT0; recombinant FGF22 thermal shift, SYPRO orange fluorescence; percent of sucrose octasulfate shift, DMSO zero; calls only at 9.99 µM; 340,000 tested, 1.5% active;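 active = melting point raised past a set limit in the mean and every replicate; inconclusive = no clear call; three in four hits are not shown here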
Target sequence (Q9HCT0 whole entry, looked up): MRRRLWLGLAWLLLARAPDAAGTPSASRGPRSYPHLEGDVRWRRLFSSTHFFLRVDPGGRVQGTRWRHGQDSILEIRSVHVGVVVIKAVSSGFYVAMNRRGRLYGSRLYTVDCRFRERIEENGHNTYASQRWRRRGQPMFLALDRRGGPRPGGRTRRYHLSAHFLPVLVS
UCH37 DUB inh – inhibitors of human UCH37 deubiquitinase, primary screen, biochemical, Ub-AMC cleavage, fluorescence; Ubiquitin carboxyl-terminal hydrolase isozyme L5 (Homo sapiens), Q9Y5K5; 330,000 tested, 0.33% active; purified proteasome/UCH37; inhibition, % (no concentration beside the values);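 active = mean of two replicates above 20%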;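 note: 0% = compound-free wells with enzyme and 100% = wells lacking proteasome; stock transfer was 100 nL into about 20 µL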
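Reagent: Ub-AMC substrate; assay system: Proteasome-associated human UCH37 deubiquitinase; controls: no-proteasome and no-compound wells; read-out: % inhibition of Ub-AMC cleavage fluorescence; timing: 30 min preincubation with enzyme, 25 min cleavage at room temperature; signal: AMC fluorescence from Ub-AMC cleavage, excitation 355 nm, emission 460 nm; buffer or medium: Tris-HCl pH 7.4 plus ovalbumin, ATP-MgCl2, DTT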
Ecoli rRNA inh – reduced GFP signal of wild-type E. coli, primary screen, bacterial rRNA inhibitor project, GFP/RFP fluorescence, OD600, single point; E. coli WT GFP vs humanized-ribosome RFP mutants, 24 h; active compounds read low; DMSO median 0, no signal -100; GFP signal change (wild-type ribosome), % (test concentration not listed); 350,000 tested, 1.6% active; AID 720706, 2013;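 active = significant combined selectivity score with lowered wild-type GFP, culture density cut under 30%, mutant RFP and density less affected; inactive = any of these conditions unmet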; note: one replicate is shown; some compounds called inactive have numbers as strong as hits
Ecoli rRNA inh OD600 – recorded beside Ecoli rRNA inh, whose call it bears; OD600 change, %; measured here: OD600 growth;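 optical density of the mix in the first replicate; 0 = DMSO median and -100 = no signal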
Ecoli rRNA inh RFP – further read-out of Ecoli rRNA inh, marked with its call; RFP signal change, %; measured here: RFP humanized mutant strains;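 first replicate; 0 = DMSO median and -100 = no signal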
The depositor's hits bear a star; i = inactive; ? = inconclusive; . = not tested or not shown. Only part of the results is shown, so the mix of outcomes need not match the whole.

SMILES	HNF4A DNA FP	E coli growth	ALR H2O2 inh	B2AR ag	FGF22 binding	UCH37 DUB inh	Ecoli rRNA inh	Ecoli rRNA inh OD600	Ecoli rRNA inh RFP
COC(=O)[C@@]12CCCN1[C@H](c1ccc(-c3ccc(OC)cc3)c(OC)c1)[C@@H]1C(=O)N(C)C(=O)[C@@H]12	11	.	.	-1	i	-6.1	-17	-10	3.9
CCN(C(=O)COC(=O)c1cc(C)oc1C)c1c(N)n(Cc2ccccc2)c(=O)[nH]c1=O	0.0	0.69	2	-1	i	2.3	-3	10	-0.9
CSc1ccc(OC2CCN(Cc3ccccc3)CC2)cc1	1.0	0.61	-7	-3	i	2.1	-27	-60	11
O=c1cc(-c2ccccc2)c2cc(Cl)c(O)c(CN3CCOCC3)c2o1	3.1	0.68	.	-4	i	-56	-3	-9	-7.5
O=C(CCCN1C(=O)/C(=C/c2ccccc2Cl)SC1=S)NNC(=O)c1ccc(Cl)cc1	15	0.77	-6	-1	i	8.0	7	1	5.7
COc1ccc(Cl)c(S(=O)(=O)N2CCCC2)c1	1.6	0.75	.	2	.	6.2	.	.	.
COC(=O)c1cc(Br)c(=O)n(-c2cccc(F)c2)c1	1.7	0.66	-10	2	.	5.3	.	.	.
CCN(/C=N/c1sc2c(c1C#N)CCCCC2)CC	-2.9	.	51	8	.	.	.	.	.
CC12CCC(C(=O)NNc3ccccc3)(C(=O)C1=O)C2(C)C (stereo not drawn)	-0.3	0.67	98*	1	i	2.5	2	7	-1.8
COc1cccc(-c2nc(CS(=O)(=O)CC(=O)NCCCN3CCc4ccccc4C3)c(C)o2)c1	1.7	0.68	99*	-8	.	-0.3	.	.	.
CCCCNc1nc(N(C)c2ccccc2)nc(-n2ccnc2)n1	-3.3	0.69	12	1	.	1.8	.	.	.
O=C1/C(=C\c2ccc(Cl)c(Cl)c2)CN(C(=O)CCN2CCOCC2)C/C1=C/c1ccc(Cl)c(Cl)c1	-0.5	.	.	52*	i	.	-19	-31	-2.6
CC(C)c1cccc(C(C)C)c1NC(=O)CN1C(=O)NC2(CCCC2)C1=O	4.2	0.66	-5	-2	i	-1.1	11	-3	8.3
Cc1cc(NC(=O)c2ccc(COc3ccccc3Cl)o2)no1	-2.4	0.71	-9	5	i	3.1	11	16	-1.7
Cc1c(C(=O)Nc2cc(S(=O)(=O)N3CCOCC3)ccc2N2CCOCC2)oc2ccccc12	0.0	0.67	2	9	i	-21	0	1	5.0
CC(C)(C)C(O)(CC#CCN1CCCC1)c1ccccc1 (stereo not drawn)	0.7	0.62	-1	3	.	4.3	1	1	-1.2
O=C(CSc1nc(Nc2ccccc2)nc(N2CCOCC2)n1)NC1CCCCC1	-1.8	0.69	-3	-13	i	-0.9	0	4	-2.0
CCOC(=O)c1sc(NC(=O)CSc2nnc(Cc3ccccc3)o2)c(C(=O)OCC)c1C	-4.2	0.75	0	-3	.	-1.8	.	.	.
COc1cccc(NC(=O)C(=O)N2CCOCC2)c1	-0.3	0.71	1	1	.	-1.5	.	.	.
C/C(CS(=O)(=O)c1ccccc1)=N\O	-0.2	.	-16	0	i	.	20	14	0.9
Cc1ccc(S(=O)(=O)N2C3CCCCC3O[C@H]2CC(=O)OCc2ccccc2)cc1 (stereo partly drawn)	-1.7	.	.	.	i	.	-1	-2	4.7
Nc1cccc(NC(=O)c2cccs2)c1	-1.6	0.66	?	-11	.	0.8	.	.	.
O=C(NC(=S)NNS(=O)(=O)c1ccccc1)c1ccc([N+](=O)[O-])cc1	-0.6	0.61	.	-2	.	2.9	.	.	.
Cc1cc(NS(=O)(=O)c2ccc(NC(=O)Nc3ccccc3)cc2)no1	0.7	0.61	33	0	.	-0.1	.	.	.
CN(C)N1C(=O)c2c(Cl)c(Cl)c(Cl)c(Cl)c2C1=O	-0.1	0.63	.	9	i	0.5	11	16	-0.8

Part of the list above, in CSV form:
structure,HNF4A DNA FP,E coli growth,ALR H2O2 inh,B2AR ag,FGF22 binding,UCH37 DUB inh,Ecoli rRNA inh,Ecoli rRNA inh OD600,Ecoli rRNA inh RFP
CC12CCC(C(=O)NNc3ccccc3)(C(=O)C1=O)C2(C)C (stereo not drawn),-0.3,0.67,98*,1,i,2.5,2,7,-1.8
COc1cccc(-c2nc(CS(=O)(=O)CC(=O)NCCCN3CCc4ccccc4C3)c(C)o2)c1,1.7,0.68,99*,-8,.,-0.3,.,.,.
CCCCNc1nc(N(C)c2ccccc2)nc(-n2ccnc2)n1,-3.3,0.69,12,1,.,1.8,.,.,.
O=C1/C(=C\c2ccc(Cl)c(Cl)c2)CN(C(=O)CCN2CCOCC2)C/C1=C/c1ccc(Cl)c(Cl)c1,-0.5,.,.,52*,i,.,-19,-31,-2.6

Following part.
SMILES	HNF4A DNA FP	E coli growth	ALR H2O2 inh	B2AR ag	FGF22 binding	UCH37 DUB inh	Ecoli rRNA inh	Ecoli rRNA inh OD600	Ecoli rRNA inh RFP
O=C(CSc1nnc(Cc2ccccc2)o1)c1cc(F)ccc1F	-0.8	0.62	11	6	i	1.5	-17	-14	-0.4
OC(CNc1ccnc2cc(Cl)ccc12)CNC1CCCCC1 (stereo not drawn)	-0.3	.	.	20	i	.	.	.	.
COc1ccc(CCNC(=O)[C@H](C)NC(=O)[C@@H]2CSC3c4ccccc4C(=O)N32)cc1 (stereo partly drawn)	-3.2	0.71	-2	5	i	1.0	5	2	2.1
CC(C)(C)C(=O)NC1CC2CCCC(C1)N2C(=O)Nc1ccccc1Cl (stereo not drawn)	0.0	0.7	-7	0	i	-2.6	-1	-8	-0.4
CCOC(=O)c1[nH]c(C)c(C(=O)OCC(=O)N2c3ccccc3CC2C)c1C (stereo not drawn)	2.0	0.68	0	-16	.	2.7	.	.	.
COc1nc(OCC#N)nc(N2CCCCC2)n1	0.5	0.67	-5	0	i	-0.9	-2	2	-1.7
NC(=O)c1oc2ccccc2c1NC(=O)C1CC(=O)N(c2ccccc2)C1 (stereo not drawn)	-0.7	0.66	-1	-1	.	-0.1	.	.	.
CCCCCCC[C@@H](C/C=C/CCC(=O)N(C)C/C(=C/Cl)C/C(=C\C(=O)N1CC(OC)=CC1=O)OC)OC	-1.0	0.7	3	93*	i	6.2	10	0	-0.6
COC(=O)C1C(=O)NC(SC)=C(C#N)C1c1ccccc1 (stereo not drawn)	-1.7	0.69	5	-4	.	1.4	.	.	.
O=C(CCCCn1cnc2c(=S)nc[nH]c21)Nc1ccc(C(=O)O)c(O)c1	-2.5	0.62	.	-8	i	2.5	4	1	2.5
CC(C)OCCCNc1ncc2c(n1)CC(c1cccs1)CC2=O (stereo not drawn)	1.0	0.73	-31	-1	i	2.4	-1	-2	-0.3
CC(C)(C)CN1CCN(Cc2cccnc2)CC1CCO (stereo not drawn)	2.8	0.62	-7	8	i	1.5	15	8	16
COc1cccc(NC(=S)NN=C2CCC(C(C)(C)C)CC2)c1 (stereo not drawn)	-4.6	0.69	-6	5	.	-0.3	2	-7	3.6
Clc1cccc(Cc2nn[nH]n2)c1	2.5	0.72	.	8	i	4.8	0	2	-0.6
CCCNC(=O)C1(C)CCCN(C(=O)c2c(F)ccc(C)c2F)C1 (stereo not drawn)	0.9	.	.	.	i	.	7	10	-2.9
O=C(Nc1ncc(Cc2cccc(Cl)c2)s1)c1ccc([N+](=O)[O-])cc1	-1.8	.	-5	3	.	.	.	.	.
O=C(/C=C/c1cccc([N+](=O)[O-])c1)Nc1ccc(Cl)cn1	1.1	0.69	-2	2	i	1.3	12	17	-1.3
O=C1CCC(C(=O)Nc2ccc(Cl)cc2)N1 (stereo not drawn)	-0.9	0.62	.	18	.	0.3	17	10	5.8
CCn1c(CC(=O)Nc2ccc(C)cc2)nnc1SCC(=O)N1CCOCC1	0.7	0.76	-5	-2	i	3.4	9	17	0.4
CCn1c2ccccc2c2cc(NC(=O)COC(=O)C3CCC(=O)N3)ccc21 (stereo not drawn)	-2.4	0.69	-3	-8	.	3.7	.	.	.
CCOC(=O)C(NC(=O)Nc1ccc(O)cc1)(c1ccccc1)C(F)(F)F (stereo not drawn)	-3.7	0.7	67	-6	.	7.0	.	.	.
COc1cccc(C(=O)OCC(=O)Nc2ccc3c(c2)OCCO3)c1	7.0	0.72	-7	-3	i	-0.3	-3	-10	1.7
CC(=O)C[C@H](O)CC(=O)[C@H]1OC(=O)[C@H](C)C/C=C\Cc2ccccc21	2.8	.	-5	10	i	2.0	8	16	1.8
CCCCOC(=O)Nc1ccc(OC)cc1S(=O)(=O)N1CCOCC1	-0.2	0.72	-7	-8	.	4.5	.	.	.
Cn1cccc1Cc1nnc(SCC(=O)Nc2ccc3c(c2)OCCO3)n1CCc1ccccc1	-0.7	0.75	3	0	i	2.8	2	-8	5.9
(listing goes on)
SMILES	HNF4A DNA FP	E coli growth	ALR H2O2 inh	B2AR ag	FGF22 binding	UCH37 DUB inh	Ecoli rRNA inh	Ecoli rRNA inh OD600	Ecoli rRNA inh RFP
CC(C)OCC(O)CN1CCNCC1 (stereo not drawn)	2.9	0.66	-6	0	.	1.8	.	.	.
COc1ccc(C(=O)NCCc2ccccc2)cc1OC	-4.7	0.65	-18	-2	i	4.7	10	17	-0.4
NCC(=O)Nc1ccc(Cl)cc1C(=O)c1ccc[nH]1	-1.3	.	.	5	i	.	-5	-13	1.0
Cc1noc(C)c1COC(=O)c1ccc(F)c(S(=O)(=O)N2CCOCC2)c1	0.4	0.69	.	-4	i	3.4	-5	-3	-2.7
Cc1ccc(C(=O)O/N=C(\N)Cc2ccc([N+](=O)[O-])cc2)c(Cl)c1	-0.4	0.64	7	0	i	5.0	0	4	-4.0
COCC(=O)N/N=C/c1ccc(Sc2nc3ccccc3s2)o1	4.0	.	0	-2	.	.	.	.	.
CC(C)CC(=O)NC(=S)Nc1ccc(S(=O)(=O)Nc2nccs2)cc1	1.8	0.67	39	3	.	6.5	.	.	.
O=C(N/N=C/c1cccs1)c1cncc(Br)c1	-3.7	.	.	8	i	.	5	11	0.0
COC(=O)c1cc(C(=O)OCC(=O)NC2CCCC2)cc([N+](=O)[O-])c1	0.4	0.69	.	3	i	0.1	12	9	3.1
O=c1c2ccccc2[nH]c(=S)n1-c1cccc(S(=O)(=O)N2CCCC2)c1	3.3	0.66	-6	4	i	0.5	6	6	-0.1
CCC(CC)C(=O)N1CCN(Cc2ccc3c(c2)OCO3)CC1	3.6	0.69	-4	12	.	6.3	.	.	.
CCc1cc(Cn2nc(-c3ccccc3)cc2C(=O)NCc2ccc(C)cc2)on1	0.9	0.65	-1	-30	i	-3.5	-2	-10	-5.1
CCOC(=O)C1CCN(c2c(NCc3ccc(C(=O)NCCOC)cc3)c(=O)c2=O)CC1	0.6	0.71	0	0	.	-0.4	.	.	.
O=C(CSc1ncnc2c1oc1ccccc12)Nc1cccc(Cl)c1	-1.5	0.75	-11	-7	.	-3.9	.	.	.
O=C1CCC(C(=O)N2CCCC(C(=O)c3ccc4c5c(cccc35)CC4)C2)=NN1 (stereo not drawn)	2.6	0.7	-16	-2	i	-131	-8	-11	3.7
CN(CCNC(=O)c1ccc(/C=N/O)nc1)Cc1ccccc1	0.3	.	.	1	i	.	16	6	-5.3
CC(Sc1ccccc1)C(=O)N1CCN(S(=O)(=O)c2ccc(Cl)cc2)CC1 (stereo not drawn)	5.9	0.69	.	-2	i	4.6	1	-36	-2.6
